Bioassay records as filed in PubChem BioAssay.
VDR inh = vitamin D3 receptor (human) inhibition. P11473. VDR-SRC2-3 peptide fluorescence polarization, 2 h. Potency, µM, for inactives: max response, negative = inhibition, usual class: inhibitors. 400,000 compounds, 0.93% hits. AID 504847; active means well fitted inhibition curve with a large enough effect; inconclusive means small, poorly fitted or top-dose-only effect, or another doubt; inactive means no such curve, though single readings can be large or run the other way; further: series mostly up to about 120 µM
Target sequence (P11473 whole entry, looked up): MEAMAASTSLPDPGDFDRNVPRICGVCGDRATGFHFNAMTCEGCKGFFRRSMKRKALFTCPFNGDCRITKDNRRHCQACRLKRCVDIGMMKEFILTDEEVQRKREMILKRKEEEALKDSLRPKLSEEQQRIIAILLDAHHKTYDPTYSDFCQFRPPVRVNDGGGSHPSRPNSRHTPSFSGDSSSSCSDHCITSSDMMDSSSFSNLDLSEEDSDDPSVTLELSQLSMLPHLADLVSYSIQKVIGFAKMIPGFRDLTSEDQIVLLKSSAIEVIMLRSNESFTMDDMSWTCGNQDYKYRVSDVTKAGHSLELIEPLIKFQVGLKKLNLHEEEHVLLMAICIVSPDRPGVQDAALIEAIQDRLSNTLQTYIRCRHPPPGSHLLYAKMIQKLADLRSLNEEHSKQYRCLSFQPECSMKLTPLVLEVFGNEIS
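Inhibition of the VDR/SRC2-3 peptide interaction is quantified by fluorescence polarization. Compounds (23 nl, pintool) incubate with the reagents for 2 hours at ambient room temperature.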
Starred values were filed as active, the others as inactive; ? = inconclusive; & = joins results of further samples; [ ] = remark or other dose. On the % scale 0 is the no-effect control and ±100 the full control effect; potency means the concentration at half of the fitted maximal effect. These rows are one share of the data, so the mix of outcomes need not match the whole.

compound | VDR inh
COc1ccc(NC(=O)CSc2nc3sc4c(c3c(=O)n2-c2ccc(OC)cc2)CCN(C)C4)cc1 | 2%
O=C(NCc1ccccc1)C1(C(F)(F)F)C/C(=C\Cc2ccccc2)CCCO1 (stereo not given) | -20%
O=C(N/N=C/c1ccc([N+](=O)[O-])cc1)c1ccc(NS(=O)(=O)c2cccs2)cc1 | -4%
CN(C(=O)c1cccc(NC(=O)Cc2ccc(NC(=O)C3CCCN(C(=O)C4CCCC4)C3)cc2)c1)C1CCC1 (stereo not given) | -1%
O=C(NC1CCCCC1)c1cc([N+](=O)[O-])ccc1N1CCCCC1 | -23%
COCCCNC(=O)c1ccc2nc(CCc3ccccc3)oc2c1 | -11%
CCOC(=O)c1cc(-c2ccc3c(c2)OCCO3)nc2c1c(C)nn2CCC#N | -5%
O=C(C1CC1)N1CCc2cc(S(=O)(=O)NCCC3=CCCCC3)ccc21 | 3%
O=c1c2ccccc2nc2c3ccccc3c3nncn3n12 | 0%
COC(=O)CC/C(O)=C1\C(=O)CC(C)(C)CC1=NCCc1nc2ccccc2[nH]1 | -17%
C/C=C(\C)C(=O)OC1[C@@H]2C=C3C4CC(=O)OC(c5ccoc5)[C@]4(C)CCC3[C@@](C)(C2=O)C(C(O)C(=O)OC)C1(C)C (stereo not given in full) | 6%
CC1CCCCN1CCNC(=O)c1cc2c(=O)n(C)c3ccccc3c2n1C (stereo not given) | -2%
COc1ccc(OC)c(S(=O)(=O)CC(O)CS(=O)(=O)c2ccccc2)c1 (stereo not given) | 3%
Cc1c(Cl)cccc1NC(=O)c1ccccc1-c1ccccc1C(=O)O | -15%
CC1Cc2cc(C(=O)O)ccc2O1 (stereo not given) | 0%
O=C(Nc1ccccc1)OCc1ccccn1 | 0%
CC(C)OC(=O)CN1C(=O)C(C)(C)Oc2ccc(C(=O)NC(C)(C)C)cc21 | -3%
C#CCOC(=O)c1ccccc1C(=O)n1nnc2ccccc21 | -22%
Cc1c(F)cccc1NS(=O)(=O)c1ccc(OCCNS(C)(=O)=O)cc1 | -7%
COc1cc(C(=O)NCCC2=CCCCC2)ccc1OC1CCN(C(C)=O)CC1 | -19%
Cc1cc(=O)c(C(=O)O)nn1-c1ccc(Cl)cc1 | -4%
CCOC(=O)c1cc(S(=O)(=O)N2CC(C)CC(C)C2)cn1C (stereo not given) | -8%
O=C(CC1Oc2ccccc2NC1=O)NCc1ccc(Cl)cc1 (stereo not given) | -12%
COC(=O)Cn1cc(C(=O)OC)c2ccccc21 | 4%
O=C(N/N=C/c1cn(-c2ccccc2)nc1-c1cc2ccccc2o1)c1c[nH]c2ccccc12 | -1%
CCc1ccc(NC(=O)N2CCN(C(=O)c3nsc4ccccc34)CC2)cc1 | -13%
Cc1cccc(N2N=C(C(=O)O)CCC2=O)c1 | 162%[activator]
O=C(NCc1ccc(F)cc1)C1CCN(C(=O)Nc2ccc(F)cc2)CC1 | -6%
O=C(COc1ccc2ccccc2c1Br)NC(=S)Nc1cccc(CO)c1 | -3%
CSCC[C@H](NC(=O)CCCn1nnc2ccccc2c1=O)C(=O)O | 10%
CCSc1nnc(NC(=O)C2Cc3ccccc3CN2S(=O)(=O)CC)s1 (stereo not given) | -5%
COc1ccc(C)cc1NC(=O)COC(=O)c1ccc2ccccc2n1 | -17%
Cc1ccc2c(CN(C)Cc3cccc(F)c3)cc(=O)oc2c1C | -12%
NC(=O)CCn1c(C(=O)c2ccc(Cl)cc2)c2ccccc2[n+]1[O-] | 5%
O=C(NNc1ccccc1C(F)(F)F)c1cccs1 | -28%
CC(C)N1CCN(Cc2ccc(OC3CCCC3)cc2)CC1CCO (stereo not given) | 5%
CC(=O)Nc1nc(CC(C)C)cc(-c2ccco2)c1C#N | 0%
O=C(O)c1ccc(/C=C/c2ccc3cccc(O)c3n2)cc1 | 4%
O=C(C1CCCN(Cc2nc(-c3cccs3)no2)C1)N1CCOCC1 (stereo not given) | -7%
CCC(C)c1ccccc1OCCOCCN1CCCC1 (stereo not given) | -4%
Fc1cccc2sc(Nc3nnc(-c4ccccc4)o3)nc12 | 4%
O=C(O)c1cc2ccc3ccccc3c2[nH]1 | 5%
Nc1nc(NCCCN2CCOCC2)nc(Nc2ccccc2)c1[N+](=O)[O-] | -17%
CC(C)OCCCn1c(SC(C)C(=O)NCC2CCCO2)nc2cc(Cl)ccc2c1=O (stereo not given) | -16%
O=[N+]([O-])c1cccc(CN2CCC(Cc3ccccc3)CC2)c1 | 11%

14 successive compounds already listed, quoted:
compound | VDR inh
COc1ccc(C)cc1NC(=O)COC(=O)c1ccc2ccccc2n1 | -17%
Cc1ccc2c(CN(C)Cc3cccc(F)c3)cc(=O)oc2c1C | -12%
NC(=O)CCn1c(C(=O)c2ccc(Cl)cc2)c2ccccc2[n+]1[O-] | 5%
O=C(NNc1ccccc1C(F)(F)F)c1cccs1 | -28%
CC(C)N1CCN(Cc2ccc(OC3CCCC3)cc2)CC1CCO (stereo not given) | 5%
CC(=O)Nc1nc(CC(C)C)cc(-c2ccco2)c1C#N | 0%
O=C(O)c1ccc(/C=C/c2ccc3cccc(O)c3n2)cc1 | 4%
O=C(C1CCCN(Cc2nc(-c3cccs3)no2)C1)N1CCOCC1 (stereo not given) | -7%
CCC(C)c1ccccc1OCCOCCN1CCCC1 (stereo not given) | -4%
Fc1cccc2sc(Nc3nnc(-c4ccccc4)o3)nc12 | 4%
O=C(O)c1cc2ccc3ccccc3c2[nH]1 | 5%
Nc1nc(NCCCN2CCOCC2)nc(Nc2ccccc2)c1[N+](=O)[O-] | -17%
CC(C)OCCCn1c(SC(C)C(=O)NCC2CCCO2)nc2cc(Cl)ccc2c1=O (stereo not given) | -16%
O=[N+]([O-])c1cccc(CN2CCC(Cc3ccccc3)CC2)c1 | 11%

Three compounds already listed, sorted by the value under VDR inh, high to low.
| structure | VDR inh |
| --- | --- |
| COc1ccc(OC)c(S(=O)(=O)CC(O)CS(=O)(=O)c2ccccc2)c1 (stereo not given) | 3% |
| O=c1c2ccccc2nc2c3ccccc3c3nncn3n12 | 0% |
| CN(C(=O)c1cccc(NC(=O)Cc2ccc(NC(=O)C3CCCN(C(=O)C4CCCC4)C3)cc2)c1)C1CCC1 (stereo not given) | -1% |

Continuation:
compound | VDR inh
Cc1ccc(F)cc1NC(=O)CN1C(=O)NC(C)(c2ccc3c(c2)OCCO3)C1=O (stereo not given) | 7%
O=C(Nc1ccc(F)cc1)Nc1cccnc1 | 10%
c1ccc(-c2nnc(N3CCCC3)nc2-c2ccccc2)cc1 | 11%
O=C(CCCOc1ccccc1)Nc1nc2ccccc2[nH]1 | 9%
CC(=O)c1ccc(N2CCN(C(=O)C3CCCN(S(=O)(=O)c4c(C)[nH]c(=O)[nH]c4=O)C3)CC2)cc1 (stereo not given) | ?
O=C(O)c1[nH]c2ccccc2c1C=NCc1ccccc1Cl | -12%
O=C(O)C1CCN(S(=O)(=O)c2cccnc2)CC1 | -26%
CC1(Br)C2CCCC1C2S(=O)(=O)c1ccccc1 (stereo not given) | -4%
CCO[C@@H]1OC(C(=O)NC2CC2)=C[C@H](c2ccc3c(c2)OCO3)[C@H]1CCCO | 10%
CCOc1ccc2oc(=O)cc(CN3CCN(C(=O)c4ccc(OC)c(OC)c4)CC3)c2c1 | 7%
COc1cccc(-c2cc(C(=O)Nn3cnnc3)c3ccccc3n2)c1 | 8%
Cn1c2ccccc2c2c(C(=O)NCc3ccco3)cn(C3CCCCC3)c(=O)c21 | -17%
CC1CCC2(CC1)NC(=O)N(CC(=O)Nc1ccc(F)cc1)C2=O (stereo not given) | ?
CC1(C)SC(=S)N(/N=C/c2cccnc2)C1N(O)C(=O)NC1CCCCC1 (stereo not given) | -1%
Cc1ccc2ncc(C(=O)Nc3ccc(OC(F)(F)F)cc3)c(=O)n2c1 | 13%
O=C(CCn1ccc2cc(S(=O)(=O)N3CCCC3)ccc21)NCc1cccc(Cl)c1 | 6%
CSCCC(NS(=O)(=O)c1ccc2c(c1)oc(=O)n2C)C(=O)N1CCN(c2ccc(C(C)=O)cc2)CC1 (stereo not given) | -8%
Cc1nc(C)c(C(=O)NNC(=O)c2ccc(Br)cc2)s1 | -7%
COc1ccc(C(=O)N2CCc3cc(OC)c(OC)cc3C2COc2ccc3c(C)cc(=O)oc3c2)c(OC)c1 (stereo not given) | 3%
CCOc1ccc(C(=O)OCC(=O)NCC2CCCO2)cc1 (stereo not given) | -9%
CCc1nc(SCC(=O)Nc2ccccc2C)n[nH]1 | -11%
Nc1ccc(NS(=O)(=O)c2ccccc2)cc1 | 7%
C=CC[C@@H](CC(=O)NCCO)C(=O)NC[C@@H](OC(=O)[C@H](CC=C)CC(=O)OC(C)(C)C)c1ccccc1 | 2%
CC1(OC(=O)c2cnc3ccccc3n2)C(=O)C=C2C=C(c3ccc(C#N)cc3)OC=C2C1=O (stereo not given) | 5%&11%
Cc1nn(CC(=O)NCc2ccc(-n3cccn3)cc2)c(C)c1[N+](=O)[O-] | -21%
COc1ccccc1N1CCC(N2CCN(CC(C)(C)C)C(CCO)C2)CC1 (stereo not given) | 11%
COc1ccc(-c2nnn(CC(=O)N(CC(=O)NCCC(C)C)Cc3cccs3)n2)cc1OC | 19%
CCN(CC)S(=O)(=O)c1ccc(OC(C)C)c(NC(=O)c2c3c(nc4ccccc24)CCN(Cc2ccccc2)C3)c1 | 5%
CC1(C)C(=O)Nc2ccccc2N1C(=O)COC(=O)c1ccc(Cl)c(S(=O)(=O)NCc2ccccc2)c1 | 5%
C#CCn1c(=NC(=O)c2cccs2)sc2cccc(OC)c21 | -11%
CCc1ccc(NC(=O)c2cc3c(=O)n(Cc4cccnc4)ccc3nc2C)cc1 | -1%
COC(=O)C1C2C=CC3(CN(CC4CCCO4)C(=O)C13)O2 (stereo not given) | -9%
O=C1OCCC1Sc1nc2ccccc2[nH]1 (stereo not given) | 3%
COc1ccc(N2CCN(C(=O)c3cccc(F)c3)CC2)c([N+](=O)[O-])c1 | -4%
Cc1c(NC(=O)C(C)OC(=O)CC2Sc3ccccc3NC2=O)c(=O)n(-c2ccccc2)n1C (stereo not given) | -15%
O=C(Cc1ccc(Cl)cc1)NCCc1ccc(F)cc1 | -24%
Cc1cc(C)n(CC(O)CN(c2cccc([N+](=O)[O-])c2)S(=O)(=O)c2ccccc2)n1 (stereo not given) | 13%
Cc1ccc(Cl)cc1NC(=S)N(Cc1cccs1)C1CCCC1 | -4%
Cn1c(=O)c2cc(C(=O)NCCCN3CCN(c4cccc(Cl)c4)CC3)sc2c2ccccc21 | 0%
CCOc1ccc(OCc2ccc(C(=O)NCc3cccnc3)o2)cc1 | 15%
CC(C)(C)NC(=O)c1sccc1C(=O)O | 4%
COc1ccccc1NC1CCCCC1NS(=O)(=O)c1ccccc1 (stereo not given) | -3%
COc1ccccc1C(=O)Nc1nnc(S(=O)(=O)N2CCCCCC2)s1 | 1%&-3%
CC(=O)Nc1nc(-c2ccc3ccccc3c2)cs1 | ?
C=CCNC(=S)N1CCN(Cc2ccc3c(c2)OCO3)CC1 | 6%
COc1ccc(NC(=O)CNc2cccc(C#N)c2)cc1Cl | 26%
O=C(c1cc(C(F)(F)F)cc(C(F)(F)F)c1)N1CCC[C@@]2(CCN(Cc3ccncc3)C2)C1 | -15%
N#Cc1ccc(S(=O)(=O)N2CCN(Cc3cccs3)CC2)cc1 | -12%
CON1C(=O)C(=O)N(OC)C2CCCCCC21 (stereo not given) | 4%
COCCNc1nc(C)cc(-c2cc(C(=O)Nc3ccccc3)on2)n1 | 1%
COc1cccc(C(c2c(O)cc(C)n(Cc3ccco3)c2=O)N2CCC(C)CC2)c1 (stereo not given) | 12%
CC1CCN(C(=O)C2(NC(=O)Nc3cccc(F)c3)CCCCC2)CC1 | -1%
COc1ccccc1-c1cc(C(=O)NN)[nH]n1 | 6%
O=C(CNC(=O)c1ccccc1F)NCCc1ccc(Cl)cc1 | -1%
COc1cc(CCC(=O)Nc2nccs2)cc(OC)c1OC | -13%
O=C(O)CSc1nnc2c(n1)[nH]c1ccccc12 | -18%
O=C(/C=C/Nc1ccccc1F)c1cccs1 | -2%
CSc1ncc(C(=O)NCc2cccc(C)c2)c(-c2ccccc2)n1 | 4%
CCOc1cc(C)c(Cl)cc1S(=O)(=O)n1nnc2ccccc21 | 4%
COc1ccccc1C(O)(C(=O)N(NC(C)=O)c1ccccc1)c1ccccc1OC | 13%

Continuation.
compound | VDR inh
O=C(O)c1ccc(S(=O)(=O)c2ccc3c(c2)C(=O)N(c2ccc(Br)cc2)C3=O)cc1 | -3%
Cn1cc(CN(Cc2ccccc2)C[C@@H]2CCC(=O)N2)c(-c2ccccc2F)n1 | -4%
O=C(Cn1cnc2sc(-c3ccccc3)cc2c1=O)NCc1ccco1 | ?
CC[C@]12c3[nH]c4ccccc4c3CCN1C(=O)C(CC(=O)NCCc1ccccn1)C[C@@H]2C(=O)N1CCN(C(=O)C2CC2)CC1 (stereo not given in full) | -16%
COc1cc(C(=O)Nc2ccc(C)c(S(=O)(=O)N(C)C)c2)ccc1OCC(=O)N1CCOCC1 | -29%
O=C1c2cc(Br)ccc2OC2C=CC=CC12 (stereo not given) | 2%
CC1=C(C(=O)Nc2cccc(F)c2)C(c2ccsc2)C2=C(CC(C)(C)CC2=O)N1 (stereo not given) | -15%
Cc1ccc(NC(=O)N2CCCC(c3ccccc3)C2)cc1 (stereo not given) | -11%
COc1ccccc1-n1nnnc1S(=O)(=O)Cc1ccc(Cl)cc1 | -1%
Cc1ccc(CC(=O)Nc2nc3ccccc3s2)cc1 | 11%
COc1ccc(CN2C(=O)c3cccnc3C2=O)cc1S(=O)(=O)NCc1ccc(C)cc1 | -9%
Cc1ccc(-c2onc3ccc(C(=O)O)cc23)cc1 | -7%
Cn1ccnc1SCC(=O)N(C1CCCCC1)C1CCCCC1 | -21%
Cc1ccccc1NC(=O)c1[nH]cnc1C(=O)NN | -19%
